Screening results (PubChem BioAssay)
UUG fidelity – alters start codon recognition fidelity in yeast. activity score, % at 18.7 µM. S. cerevisiae UUG-firefly luciferase reporter, luminescence/redox ratio. 350,000 tested, 0.13% active;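 active means replicate mean at a twofold rise or more, about +100% in these data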;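 further: firefly luciferase made from a UUG start codon reports start codon fidelity; reporter light over untreated wells divided by growth signal over untreated wells; some hits fall short of that in this replicate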
HIV Env fusion – blocks HIV Env-driven cell-cell fusion | HeLa-JRFL Env/CEM21 cell fusion, luciferase | inhibition, % at 12.3 µM | 360,000 tested, 1.1% active;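 active means mean replicate inhibition score of at least 50 and every replicate individually at or above 50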;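 further: 0% = plate neutral controls and 100% = maraviroc near 300 nM; one replicate is shown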
* hit, by the source's call; [ ] = dose if it differs, or a comment. These rows are one share of the data; the hit share may differ from the screen's.

SMILES	UUG fidelity	HIV Env fusion
C[C@H]1CN([C@@H](C)CO)S(=O)(=O)c2ccc(C3=CCCC3)cc2O[C@H]1CN(C)C(=O)C1CCOCC1	9	-2[16.7 µM]
C[C@@H]1CN([C@@H](C)CO)C(=O)Cc2cc(NC(=O)CCCCCC(=O)Nc3ccccc3N)ccc2O[C@@H]1CN(C)C(=O)Nc1ccc(C(F)(F)F)cc1	-13	-8[16.7 µM]
COCCNC(=O)C[C@@H]1C[C@@H]2c3cc(NS(=O)(=O)c4ccc(F)cc4)ccc3O[C@@H]2[C@@H](CO)O1	6	5[16.7 µM]
C[C@@H]1CCCCO[C@@H](CN(C)Cc2ccc3c(c2)OCO3)[C@H](C)CN([C@H](C)CO)C(=O)c2cc(NC(=O)Nc3ccc(F)cc3)ccc2O1	26	-11[16.7 µM]
CCC(=O)Nc1ccc2c(c1)OC[C@H](C)NC[C@H](C)[C@H](OC)CN(C)C2=O	-5	-11[16.7 µM]
COc1ccc(S(=O)(=O)N(C)C[C@H]2Oc3ccc(NS(C)(=O)=O)cc3C(=O)N([C@H](C)CO)C[C@H]2C)cc1	-9	31[16.7 µM]
C[C@H](CO)N1C[C@H](C)[C@@H](CN(C)C(=O)c2ccccc2F)Oc2cc(-c3ccccc3)ccc2S1(=O)=O	7	7[16.7 µM]
COc1ccc(NC(=O)N(C)C[C@@H]2Oc3c(NC(=O)C4CC4)cccc3C(=O)N([C@H](C)CO)C[C@H]2C)cc1	4	26[16.7 µM]
Cc1ccc(S(=O)(=O)N(C)C[C@H]2Oc3ccc(NC(=O)Nc4c(C)noc4C)cc3CC(=O)N([C@H](C)CO)C[C@H]2C)cc1	1	-6[16.7 µM]
CC(C)C(=O)Nc1ccc2c(c1)C(=O)N(C)[C@H]1CC[C@@H](CC(=O)N[C@H](C)c3ccccc3)O[C@H]1CO2	5	-22[16.7 µM]
C[C@H](NC(=O)C[C@@H]1C[C@@H]2c3cc(NS(C)(=O)=O)ccc3O[C@@H]2[C@@H](CO)O1)c1ccccc1	12	29[16.7 µM]
CCC(=O)N(C)C[C@@H]1Oc2cc(C#CCN(C)C)ccc2S(=O)(=O)N([C@@H](C)CO)C[C@@H]1C	10	-10[16.7 µM]
COc1ccc(S(=O)(=O)Nc2ccc3c(c2)C(=O)N([C@H](C)CO)C[C@H](C)[C@@H](CN(C)C(=O)Nc2cccc4ccccc24)OCCCC[C@H](C)O3)cc1	-2	28[16.7 µM]
CCCNC(=O)C[C@@H]1C[C@@H]2c3cc(NC(=O)Nc4ccc(F)cc4)ccc3O[C@@H]2[C@H](CO)O1	-21	7[16.7 µM]
CCCN1C[C@H](C)[C@H](OC)CN(C)C(=O)c2ccc(NC(=O)Nc3cccc(F)c3)cc2OC[C@@H]1C	38	2[16.7 µM]
C[C@@H]1CCCCO[C@@H](CN(C)S(C)(=O)=O)[C@H](C)CN([C@@H](C)CO)C(=O)c2cc(NS(=O)(=O)c3cn(C)cn3)ccc2O1	-5	0[16.7 µM]
C[C@H](CO)N1C[C@H](C)[C@H](CN(C)Cc2ccc(C(=O)Nc3ccccc3N)cc2)Oc2ccc(NS(=O)(=O)c3ccccc3)cc2CC1=O	-1	-41[16.7 µM]
C[C@@H]1CN([C@@H](C)CO)S(=O)(=O)c2ccc(C#CC3CC3)cc2O[C@@H]1CN(C)C(=O)c1ccncc1	2	-20[16.7 µM]
CCCC#Cc1cnc2c(c1)C(=O)N([C@@H](C)CO)C[C@@H](C)[C@H](CN(C)C(=O)Cc1ccncc1)O2	-6	18[16.7 µM]
C[C@H](CO)N1C[C@H](C)[C@@H](CN(C)S(=O)(=O)c2ccc(F)cc2)OCCCC[C@H](C)Oc2ccc(NC(=O)c3ccccc3)cc2C1=O	10	-79[16.7 µM]
C[C@@H](O)C#Cc1ccc2c(c1)O[C@@H](CN(C)Cc1ccncc1)[C@@H](C)CN([C@@H](C)CO)S2(=O)=O	0	-11[16.7 µM]
O=C(C[C@H]1C[C@@H]2c3cc(NC(=O)CC4CC4)ccc3O[C@@H]2[C@H](CO)O1)NCc1ccc2c(c1)OCO2	8	-4[16.7 µM]
C[C@H]1CN([C@@H](C)CO)C(=O)c2cc(NC(=O)Nc3ccc4c(c3)OCO4)ccc2O[C@H]1CN(C)C(=O)Nc1ccc(C(F)(F)F)cc1	-8	9[16.7 µM]
O=C(C[C@@H]1CC[C@H]2[C@@H](COC[C@@H](O)CN2C(=O)c2cc(Cl)cc(Cl)c2)O1)N1CCc2ccccc2C1	2	23[16.7 µM]

4 of the compounds above, with each value named:
C[C@H](CO)N1C[C@H](C)[C@H](CN(C)Cc2ccc(C(=O)Nc3ccccc3N)cc2)Oc2ccc(NS(=O)(=O)c3ccccc3)cc2CC1=O
  UUG fidelity: -1 | HIV Env fusion: -41[16.7 µM]
C[C@@H]1CN([C@@H](C)CO)S(=O)(=O)c2ccc(C#CC3CC3)cc2O[C@@H]1CN(C)C(=O)c1ccncc1
  UUG fidelity: 2 | HIV Env fusion: -20[16.7 µM]
CCCC#Cc1cnc2c(c1)C(=O)N([C@@H](C)CO)C[C@@H](C)[C@H](CN(C)C(=O)Cc1ccncc1)O2
  UUG fidelity: -6 | HIV Env fusion: 18[16.7 µM]
C[C@H](CO)N1C[C@H](C)[C@@H](CN(C)S(=O)(=O)c2ccc(F)cc2)OCCCC[C@H](C)Oc2ccc(NC(=O)c3ccccc3)cc2C1=O
  UUG fidelity: 10 | HIV Env fusion: -79[16.7 µM]

Carrying on.
SMILES	UUG fidelity	HIV Env fusion
COC(=O)C[C@@H]1CC[C@@H]2[C@H](COc3ccc(NC(=O)C4CC4)cc3C(=O)N2C)O1	5	-55[16.7 µM]
C[C@@H]1CN([C@H](C)CO)C(=O)c2cc(NS(=O)(=O)c3ccc(F)cc3)ccc2O[C@@H]1CN(C)S(=O)(=O)c1ccc(F)cc1	7	-52[16.7 µM]
C[C@H](CO)N1C[C@H](C)[C@@H](CN(C)C(=O)Nc2ccc3c(c2)OCO3)Oc2ccc(NC(=O)Nc3cccc4ccccc34)cc2C1=O	-7	10[16.7 µM]
CC(C)NC(=O)N(C)C[C@H]1Oc2ccc(NS(=O)(=O)c3cccs3)cc2CC(=O)N([C@@H](C)CO)C[C@@H]1C	-10	-8[16.7 µM]
C[C@H](CO)N1C[C@H](C)[C@H](CN(C)Cc2ccc(C(=O)O)cc2)Oc2ccc(NC(=O)CCN3CCOCC3)cc2CC1=O	17	-14[16.7 µM]
C[C@H](CO)N1C[C@H](C)[C@H](CN(C)C(=O)Nc2cccc3ccccc23)Oc2ccc(NC(=O)NC3CCCCC3)cc2C1=O	-8	7[16.7 µM]
C[C@@H]1CN([C@@H](C)CO)C(=O)c2cc(NC(=O)Nc3cccc4ccccc34)ccc2O[C@@H](C)CCCCO[C@@H]1CN(C)C(=O)NC1CCCCC1	-1	-14[16.7 µM]
CC(C)C#Cc1cnc2c(c1)C(=O)N([C@@H](C)CO)C[C@H](C)[C@@H](CN(C)C(=O)Nc1ccccc1)O2	12	-1[16.7 µM]
C[C@H](CO)N1C[C@H](C)[C@@H](CN(C)C(=O)c2ccc(F)cc2)Oc2ncc(C3=CCCCC3)cc2C1=O	24	2[16.7 µM]
C[C@H](CO)N1C[C@H](C)[C@@H](CN(C)Cc2ccccc2C(=O)O)Oc2cc(-c3ccc(C(=O)N(C)C)cc3)ccc2S1(=O)=O	6	-25[16.7 µM]
CC(=O)N(C)C[C@H]1Oc2cc(-c3ccc(F)cc3)ccc2S(=O)(=O)N([C@@H](C)CO)C[C@H]1C	7	5[16.7 µM]
Cc1ccc(S(=O)(=O)N(C)C[C@H]2OCCCC[C@H](C)Oc3ccc(NC(=O)CCCN(C)C)cc3C(=O)N([C@H](C)CO)C[C@H]2C)cc1	2	4[16.7 µM]
CC(C)C#Cc1ccc2c(c1)O[C@H](CN(C)CC1CCOCC1)[C@@H](C)CN([C@H](C)CO)S2(=O)=O	-1	19[16.7 µM]
C[C@H]1CN([C@@H](C)CO)C(=O)CCCn2cc(nn2)CO[C@H]1CN(C)S(=O)(=O)c1ccccc1F	3	2[16.7 µM]
C[C@@H]1CCCCO[C@@H](CN(C)C(=O)Cc2ccccc2)[C@@H](C)CN([C@@H](C)CO)C(=O)c2cc(NS(=O)(=O)c3ccc(Cl)cc3)ccc2O1	10	-4[16.7 µM]
O=C(C[C@H]1CC[C@@H]2[C@H](COC[C@H](O)CN2Cc2cocn2)O1)N[C@@H]1CCN(Cc2ccccc2)C1	1	-7[16.7 µM]
C[C@@H]1CN([C@@H](C)CO)C(=O)c2cc(NC(=O)Nc3ccc(F)cc3)ccc2O[C@@H](C)CCCCO[C@H]1CN(C)C(=O)C1CCCCC1	-12	9[16.7 µM]
CCCNC(=O)N(C)C[C@@H]1Oc2cc(C#CC(C)C)ccc2S(=O)(=O)N([C@@H](C)CO)C[C@@H]1C	3	-40[16.7 µM]
C[C@@H]1CN([C@@H](C)CO)C(=O)c2cc(NC(=O)C3CCCCC3)ccc2O[C@@H](C)CCCCO[C@@H]1CN(C)S(=O)(=O)c1cn(C)cn1	5	1[16.7 µM]
CCC(=O)Nc1ccc2c(c1)C(=O)N(C)[C@H]1CC[C@H](CC(=O)N3CCCCC3)O[C@H]1CO2	0	3[16.7 µM]
COCC(=O)N(C)C[C@@H]1Oc2cc(C3=CCCCC3)ccc2S(=O)(=O)N([C@H](C)CO)C[C@H]1C	18	11[16.7 µM]
COc1ccc(CN(C)C[C@H]2OCCCC[C@H](C)Oc3ccc(NS(=O)(=O)c4ccc(C)cc4)cc3C(=O)N([C@H](C)CO)C[C@H]2C)cc1	5	-12[16.7 µM]
COc1ccc(S(=O)(=O)N(C)C[C@@H]2OCCCC[C@@H](C)Oc3ccc(NC(=O)NC(C)C)cc3C(=O)N([C@@H](C)CO)C[C@@H]2C)cc1	3	-4[16.7 µM]
C[C@H]1CN([C@@H](C)CO)C(=O)Cc2cc(NC(=O)C3CC3)ccc2O[C@@H]1CN(C)Cc1ccc(C(=O)O)cc1	-11	-4[16.7 µM]
CC(C)NC(=O)N(C)C[C@@H]1Oc2c(NC(=O)C3CC3)cccc2C(=O)N([C@H](C)CO)C[C@@H]1C	1	-15[16.7 µM]
COc1ccc(S(=O)(=O)N(C)C[C@H]2Oc3ccc(NS(=O)(=O)c4cn(C)cn4)cc3CC(=O)N([C@@H](C)CO)C[C@@H]2C)cc1	-19	5[16.7 µM]
CCC(=O)Nc1ccc2c(c1)C(=O)N(C)C[C@H](OC)[C@@H](C)CN(C(=O)c1ccccc1F)[C@H](C)CO2	0	-20[16.7 µM]
COc1ccc(NC(=O)N(C)C[C@H]2OCCCC[C@@H](C)Oc3ccc(NS(=O)(=O)c4cn(C)cn4)cc3C(=O)N([C@@H](C)CO)C[C@H]2C)cc1	-19	-32[16.7 µM]
COc1ccc(S(=O)(=O)N[C@H]2CC[C@@H](CCNC(=O)CN3CCOCC3)O[C@@H]2CO)cc1	3	4[16.7 µM]
C[C@@H]1CCCCO[C@H](CN(C)S(=O)(=O)c2cccs2)[C@@H](C)CN([C@H](C)CO)C(=O)c2cc(NS(=O)(=O)c3ccc(Cl)cc3)ccc2O1	9	-2[16.7 µM]
C[C@@H]1CN([C@@H](C)CO)C(=O)c2cc(NS(=O)(=O)c3cccs3)ccc2O[C@@H]1CN(C)CC1CC1	4	-14[16.7 µM]
C[C@@H]1CCCCO[C@@H](CN(C)C(=O)c2ccccc2)[C@@H](C)CN([C@@H](C)CO)C(=O)c2cc(NS(=O)(=O)c3ccccc3)ccc2O1	22	-1[16.7 µM]
N#C[C@H]1[C@H](c2ccc(C3=CCCC3)cc2)[C@@H](CO)N1C(=O)NC1CCCC1	5	20[16.7 µM]
COCCOC(=O)N1C(=O)[C@@]2(c3cc(C#CCNC(N)=O)ccc31)[C@H](c1ccccc1OCCO)N1[C@H](c3ccccc3)[C@H](c3ccccc3)OC(=O)[C@H]1[C@@H]2C(N)=O	-7	-12[16.7 µM]
Cn1cnc(S(=O)(=O)N[C@H]2C=C[C@H](CC(=O)NCC3CC3)O[C@H]2CO)c1	-11	2[16.7 µM]
CCCC(=O)Nc1ccc2c(c1)C(=O)N(C)C[C@@H](OC)[C@H](C)CN(C)[C@@H](C)CO2	7	6[16.7 µM]
OCCSCC(O)CC(O)c1ccccc1 (stereo not given)	1	-11[16.7 µM]
C[C@@H]1CN([C@H](C)CO)C(=O)c2cc(NC(=O)C3CC3)ccc2O[C@@H]1CN(C)CC1CC1	-4	15[16.7 µM]
CCCNC(=O)N(C)C[C@H]1Oc2cc(C#CCOC)ccc2S(=O)(=O)N([C@@H](C)CO)C[C@@H]1C	16	-6[16.7 µM]
COc1ccc([Si](C)(C)[C@@H]2[C@@H](CCO)O[C@]3(C(=O)N(Cc4ccccc4)c4ccc(N5CCC5=O)cc43)[C@H]2C)cc1	-7	15[16.7 µM]
C[C@@H]1CN([C@@H](C)CO)S(=O)(=O)c2ccc(-c3ccncc3)cc2O[C@@H]1CN(C)C	-20	8[16.7 µM]
CCNC(=O)C[C@@H]1CC[C@H](NC(=O)C2CC2)[C@H](CO)O1	14	9[16.7 µM]
C[C@@H]1CCCCO[C@H](CN(C)C(=O)C2CCCCC2)[C@@H](C)CN([C@@H](C)CO)C(=O)c2cc(NS(=O)(=O)c3ccc(F)cc3)ccc2O1	6	-62[16.7 µM]
CN1C(=O)c2cc(NC(=O)c3cscn3)ccc2OC[C@@H]2O[C@@H](CC(=O)N3CCOCC3)CC[C@@H]21	-10	7[16.7 µM]
